High-throughput results from PubChem.
MT1-MMP act inh: inhibitors of human MT1-MMP activation | HT1080 RFP-PRO-GFP cells, GFP/RFP ratio fluorescence, overnight; percent of plate control window, DMSO zero | GFP/RFP ratio change, % at 20 µM | 360,000 compounds, 0.061% hits;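 active means GFP/RFP ratio change of at least 30% with cell ATP level not reduced by more than half and red fluorescence within 50% of control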; further: strong numbers were not always called active
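Assay system: RFP-PRO-GFP reporter HT1080 cells; read-out basis: GFP/RFP fluorescence ratio; benchmarks: DMSO wells and RFP-L50D-GFP cells; doses: 20 µM single dose, 1% DMSO; schedule: overnight cell settling, then overnight compound exposure, 37 °C, 5% CO2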
PABP FP inh: blocks human PABP binding to poly(A) RNA | 290,000 compounds, 1% hits | fluorescence polarization | AID 2014 | P11940 | inhibition, % at 35 µM;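 active means 50% or more with normal probe brightness, or confirmed in later tests; inconclusive means above 50% with abnormal brightness, or retests that disagree; inactive means below 50% or failed in later tests; about a fifth of its hits are not listed in these tables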;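 further: calls also rest on retests at 20 µM and on dose response follow-up; controls were probe without protein and protein plus probe with vehicle; some compounds called inactive have numbers as strong as hits; many hits fall short of the cut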
Target sequence (P11940 whole entry, looked up): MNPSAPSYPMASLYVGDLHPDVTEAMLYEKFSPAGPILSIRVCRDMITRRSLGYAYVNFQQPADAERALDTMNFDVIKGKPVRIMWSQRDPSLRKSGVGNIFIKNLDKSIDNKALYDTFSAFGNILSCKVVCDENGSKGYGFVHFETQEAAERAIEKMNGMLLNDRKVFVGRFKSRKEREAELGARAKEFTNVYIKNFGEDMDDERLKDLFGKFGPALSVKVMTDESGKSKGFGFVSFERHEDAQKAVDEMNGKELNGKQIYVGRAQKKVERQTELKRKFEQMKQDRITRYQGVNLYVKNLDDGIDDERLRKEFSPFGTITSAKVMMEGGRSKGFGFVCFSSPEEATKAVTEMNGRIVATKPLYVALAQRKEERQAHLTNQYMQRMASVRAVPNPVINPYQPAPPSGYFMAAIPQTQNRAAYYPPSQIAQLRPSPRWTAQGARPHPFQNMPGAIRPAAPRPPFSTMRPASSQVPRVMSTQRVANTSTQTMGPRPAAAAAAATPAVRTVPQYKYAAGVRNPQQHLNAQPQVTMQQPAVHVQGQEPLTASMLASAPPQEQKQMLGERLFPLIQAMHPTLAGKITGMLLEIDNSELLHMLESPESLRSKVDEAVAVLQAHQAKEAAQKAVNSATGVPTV
HIV Env fusion: blocks HIV Env-driven cell-cell fusion. 360,000 compounds, 1.1% hits. inhibition, % at 12.3 µM. AID 651610. HeLa-JRFL Env/CEM21 cell fusion, luciferase;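 active means mean replicate inhibition score of at least 50 and every replicate individually at or above 50; inconclusive means only one of the two criteria met; inactive means mean below 50 and not all replicates reaching 50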;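 further: 0% = plate neutral controls and 100% = maraviroc near 300 nM; one replicate is shown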
Rce1 inh: inhibitors of yeast Ras-converting enzyme; Q03530; yeast membranes, quenched prenylated peptide cleavage fluorescence; calls only; 290,000 compounds, 0.27% hits; AID 2563;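 active means fall in fluorescence gain of 50% or more versus controls, with final raw signal at or below 3038400; inconclusive means same 50% fall but final raw signal above 3038400; inactive means fall in fluorescence gain under 50%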;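 further: plate controls were neutral control wells for no effect and wells lacking membranes for full effect; tested at 10 µM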
Target sequence (Q03530 whole entry, looked up): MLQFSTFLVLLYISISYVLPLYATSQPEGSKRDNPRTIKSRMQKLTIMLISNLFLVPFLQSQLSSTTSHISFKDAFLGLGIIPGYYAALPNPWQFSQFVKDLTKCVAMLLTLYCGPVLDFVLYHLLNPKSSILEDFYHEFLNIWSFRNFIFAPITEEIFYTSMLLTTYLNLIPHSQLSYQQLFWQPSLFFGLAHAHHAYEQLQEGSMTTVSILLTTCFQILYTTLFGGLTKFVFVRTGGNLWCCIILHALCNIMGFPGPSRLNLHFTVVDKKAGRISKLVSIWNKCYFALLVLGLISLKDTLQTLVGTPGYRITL
eIF4H inh: inhibitors of RNA binding by human eIF4H; eIF4H fluorescence polarization binding assay; inhibition, % at 35 µM; 290,000 compounds, 0.94% hits; AID 2012;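 active means 50% or more with normal probe brightness, or confirmed in later tests; inconclusive means above 50% with abnormal brightness, or retests that disagree; inactive means below 50% or failed in later tests; about a fifth of its hits are not listed in these tables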;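 further: calls also rest on retests at 20 µM and on dose response follow-up; 0% = protein and probe with vehicle and 100% = probe without protein; strong numbers were not always called active; many hits fall short of the cut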
UUG fidelity: alters start codon recognition fidelity in yeast; activity score, % at 18.7 µM; AID 602363; 350,000 compounds, 0.13% hits; S. cerevisiae UUG-firefly luciferase reporter, luminescence/redox ratio;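 active means replicate mean at a twofold rise or more, about +100% in these data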;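 further: firefly luciferase made from a UUG start codon reports start codon fidelity; reporter light over untreated wells divided by growth signal over untreated wells; some hits fall short of that in this replicate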
CSC inhib: cancer stem cell inhibition | cancer stem cell-like cells viability, luminescence | inhibition, % at 7.5 µM | 300,000 compounds, 1.1% hits | AID 2717;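 active means mean at 75% or more and at least half the replicates too; inconclusive means mean and replicates disagree; tested in HMLE shEcad cells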;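 further: 0% = median of negative and 100% = median of positive control wells; the first replicate is given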
eIF4H inh retest: further read-out of eIF4H inh, marked with its call; inhibition, %; compound at 20 µM; confirmation average;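 mean of two retest wells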
PABP FP inh retest: further read-out of PABP FP inh, marked with its call; inhibition, %; compound at 20 µM; confirmation repeats;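 mean of two retest wells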
MT1-MMP act inh RFP: recorded beside MT1-MMP act inh, whose call it bears; RFP signal change, %; measured here: RFP expression control read;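 0 = vehicle wells; hits needed this value within 50% of zero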
* marks the source's active call; other numbers are inactive results; i = inactive; u = inconclusive; x = not tested or not shown; + = active, no number. An excerpt; count on the stated rates, not on these rows.

Sample of the layout (2 entries):
SMILES	MT1-MMP act inh	MT1-MMP act inh RFP	PABP FP inh	HIV Env fusion	Rce1 inh	eIF4H inh	UUG fidelity	CSC inhib	others
CCn1c(CNc2ccc(Cl)cc2)nnc1SCC(=O)OC1CCCCC1	5	-2	-5	x	i	1	-28	19
O=C(NC1CCCC1)C1CCC(CNS(=O)(=O)c2cccs2)CC1 (stereo not drawn)	-4	-4	4	-2	i	-8	x	1

The listing, repeating the preview:
SMILES	MT1-MMP act inh	MT1-MMP act inh RFP	PABP FP inh	HIV Env fusion	Rce1 inh	eIF4H inh	UUG fidelity	CSC inhib	others
CCn1c(CNc2ccc(Cl)cc2)nnc1SCC(=O)OC1CCCCC1	5	-2	-5	x	i	1	-28	19
O=C(NC1CCCC1)C1CCC(CNS(=O)(=O)c2cccs2)CC1 (stereo not drawn)	-4	-4	4	-2	i	-8	x	1
COc1ccnc(Oc2ccc(F)cc2)c1-c1ncn[nH]1	3	2	12	13	i	8	x	1
COc1cccc2cc(C(=O)C3=C(O)C(=O)N(CCN4CCOCC4)C3c3ccc(C)o3)oc12 (stereo not drawn)	-3	6	-3	-8	i	-6	-24	15
O=C(Nc1nnc(C2CC2)s1)c1cccc(S(=O)(=O)N2CCc3ccccc32)c1	-1	-1	-6	x	i	-12	60	16
c1ccc2c(-c3cc(C4CCNCC4)[nH]n3)cccc2c1	2	4	-40	13	i	-1	-13	22
C=CCSc1ccsc1C(=O)O	2	9	-1	-41	i	-2	-9	-10
O=C(Nc1ccccc1)N1C(=O)C2(OCCO2)c2ccccc21	13	3	-1	x	i	-4	-13	-11
CCOc1cc(N2CCOCC2)c(OCC)cc1NC(=O)c1ccc(OCc2c(C)noc2C)c(OC)c1	8	0	-4	16	i	3	x	-2
O=C1C2CC=CCC2C(=O)N1c1ccc(NCCc2cccc(F)c2)c([N+](=O)[O-])c1 (stereo not drawn)	10	-6	-14	1	i	-5	-5	38
COc1ccc(CNC(=O)Cn2cc([N+](=O)[O-])nc2C)cc1	-1	-1	-5	-25	i	3	-10	-3
CCOC1=NN(c2ccccc2)C(=O)/C1=C\N(C)C	1	4	-9	6	i	12	-9	-13
CCC(CC)NCCOC(=O)c1ccc([N+](=O)[O-])cc1	-1	3	10	-2	i	1	-19	-1
COc1cc(C2=NC(CO)(CO)CO2)cc(OC)c1OC	0	0	-4	-1	x	2	-15	-5
OC1CCN(C(=S)Nc2ccc(Oc3ccccc3)cc2)CC1	5	-3	-10	32	i	-1	x	-33
Cc1cccc(CN2CCC(CNC(=O)Cn3ncc4c([nH]c5ccccc54)c3=O)CC2)c1	2	5	-10	-4	i	-2	6	-13
O=C(NCc1nc2ccccc2[nH]1)c1c(F)c(F)c(F)c(F)c1F	1	2	-6	14	i	3	x	5
O=C(COc1ccccc1)NNc1nc2c(F)cc(F)cc2s1	-2	2	5	7	i	-3	x	-14
COCCn1c(N)c(C(=O)Nc2sc3c(c2C(=O)OC)CCCC3)c2nc3ccccc3nc21	-31	-3	42	x	x	40	-19	43
CCOC(=O)C1CCN(C(=O)c2c(-c3ccccc3)noc2C)CC1	x	x	1	-2	i	-6	x	-18
COC(=O)n1c(=O)oc2ccc(S(=O)(=O)N3CCCCC3)cc21	-1	-1	6	-6	i	-6	x	-8
COc1ccc(C(=O)NCc2ccncc2)cc1S(=O)(=O)N1CCOCC1	-3	9	x	x	x	x	7	5
Cc1ccc(CN2[C@@H](CC(C)C)COCCS2(=O)=O)cc1	1	4	x	5	i	x	4	1
CC(C)CNC(=S)NC(=O)c1ccccc1Cl	2	1	-2	-44	i	2	x	-6
CN(C)CCNC(=O)CN1C(=O)COc2ccc(C(C)(C)C)cc21	1	3	7	5	i	0	-12	2
O=c1c2ccccc2nc(-c2ccc(Cl)cc2Cl)n1O	9	7	2	-4	i	10	x	23
COc1ccc(C(=O)Nc2ccc(NC(=O)C3CCCCC3)nc2)cc1	1	2	1	6	i	4	-17	-1
O=C(CSc1nnc(Cc2ccccc2)o1)Nc1ccc(N2CCOCC2)cc1	-5	0	x	-10	x	x	-10	-12
O=C(NCc1csc(-c2ccccc2)n1)c1ccco1	4	0	-1	x	i	-6	-6	0
O=C(C1=NN[C@@H]2C(=O)N(c3cccc(C(F)(F)F)c3)C(=O)[C@H]12)c1cnccn1	-4	4	-2	-11	i	-1	x	-7
O=C(CSc1n[nH]c(-c2ccccc2)n1)Nc1ccc(Br)cn1	2	2	20	x	x	5	-3	-9
Cc1noc(C)c1CSc1nnc(-c2ccncc2)n1-c1cccc(Cl)c1C	4	8	-7	-78	i	-12	19	-17
COc1ccc(NC(=O)[C@H](C)NC(=O)C2CCN(S(=O)(=O)c3ccc(C)cc3)CC2)cc1	5	4	3	1	i	-9	-9	-1
CSc1nc(NCC(C)O)c2c3c(sc2n1)CN(C)CC3 (stereo not drawn)	-3	1	1	-43	+	30	4	-8
CCOc1ccccc1C(=O)N/N=C/c1cccc2cccnc12	3	6	-4	x	i	8	6	0
Cc1ccc(S(=O)(=O)NNc2ccccc2)c(C)c1	-4	2	-14	-3	x	-9	-32	6
COc1ccc(C(=O)NCc2ccc3[nH]c(C)cc3c2)cc1OC	6	10	4	-1	i	3	x	-2
CC1CCc2sc(NC(=S)NC(=O)c3ccccc3)c(C#N)c2C1 (stereo not drawn)	-4	2	-6	-56	i	-5	x	-2
N#CC1=C(S)N=C(N)C(c2nc(-c3ccccc3)cs2)C12CCCCC2 (stereo not drawn)	-5	2	17	x	i	-6	-17	-13
Cc1ccc(C(=O)OCC(=O)NCc2cccs2)c(C)c1	6	-1	0	-14	i	0	x	2
Cc1ccc(Nc2nc(N)nc(CSc3nnnn3-c3ccccc3)n2)cc1	6	4	8	0	i	-3	14	3
Cn1c(SCC(=O)Nc2ccc3nc(SCC(=O)N4CCCC4)sc3c2)nnc1-c1ccccc1	x	x	21	x	i	80	x	5	eIF4H inh retest=48;PABP FP inh retest=27
COc1ccc(CN2C(=O)C(C)Nc3ncnc(N4CCOCC4)c32)cc1 (stereo not drawn)	8	-7	x	-105	x	x	1	x
COCCN(C(=O)CSCc1ccc(C)cc1)c1c(N)n(CC(C)C)c(=O)[nH]c1=O	-4	1	x	0	x	x	x	-7
Cc1ccsc1C(=O)OCC(=O)Nc1ccc(Cl)cc1C(F)(F)F	3	4	-11	-20	i	-10	x	5
Cc1nnc(SCC(=O)NC(=O)NC(C)(C)C)s1	0	-1	4	1	i	10	x	-5
CCn1ccnc1CN(C)C(=O)c1cc(COc2ccc(-n3cncn3)cc2)on1	1	-4	5	3	i	-2	-12	-2
CN(C)S(=O)(=O)Nc1ccccc1C(N)=O	-2	-1	-7	-67	i	-14	-10	9
COc1ccccc1CCNC(=O)c1ccc(OC)c(OC2CCN(C(C)C)CC2)c1	-1	1	7	11	i	7	-1	-12
CC(Sc1ncnc2sc(-c3ccccc3)cc12)C(=O)N1CCNC1=O (stereo not drawn)	-5	-2	x	5	x	x	1	x
CN(C)C(=O)[C@@H]1C[C@H]1[C@@H](NC(=O)OCc1ccccc1)c1ccccc1	16	12	21	-4	i	-6	2	-1
Cc1ccc(Cl)cc1NC(=O)CCC(=O)Nc1cc(Cl)ccc1C	5	3	-3	6	i	-3	x	-9
O=c1c2ccccc2nnn1CSc1ccccc1	-1	7	4	x	i	-3	x	-7
c1cn2c(-c3ccc(N4CCOCC4)cc3)cncc2n1	2	2	x	-10	x	x	-5	x
COC(=O)N/N=C/c1cc(Cl)c(OCc2ccccc2F)c(OC)c1	2	-5	-1	6	i	-5	-27	13
CCOC(=O)C1(CC2CCCCO2)CCN(C(=O)Nc2cccc(SC)c2)CC1 (stereo not drawn)	2	0	-2	6	i	-3	x	4
C=CCSC1=C(C#N)C(c2ccccc2Cl)CC(=O)N1 (stereo not drawn)	1	2	-1	x	i	2	-4	5
O=C(CCCN1C(=O)c2ccccc2C1=O)NCC1CCCO1 (stereo not drawn)	4	6	1	-14	i	-11	-15	3
CN1CCN(C(=S)Nc2ccc(Cl)cc2)CC1	3	7	11	3	i	-5	x	-8
CC(=O)NC(c1ccc(F)c(F)c1)c1nc(-c2ccc(C)c(C)c2)cs1 (stereo not drawn)	1	-1	x	5	x	x	-22	x
Remaining list, next part:
SMILES	MT1-MMP act inh	MT1-MMP act inh RFP	PABP FP inh	HIV Env fusion	Rce1 inh	eIF4H inh	UUG fidelity	CSC inhib	others
COc1cc(OC)cc(-c2c(C#Cc3ccsc3)c3cc(-c4cccc5[nH]cc(C=O)c45)ccc3n2C)c1	-30	-3	x	10	x	x	-11	18
CC(C)(C)NC(=O)CC(CC(=O)O)c1ccccc1 (stereo not drawn)	-1	0	-15	-29	i	-1	-7	-6
Cn1c(=O)c2c(nc(Sc3n[nH]c(N)n3)n2Cc2ccccc2Cl)n(C)c1=O	2	-3	7	-62	i	-4	-28	-14
CCCc1nnc(NC(=O)c2cc3ccccc3o2)s1	2	2	1	-19	i	5	-14	-15
COc1ccc(N(Cc2cc3ccc(C)cc3[nH]c2=O)C(=O)c2ccco2)cc1	1	-2	2	x	i	-15	-21	-5
N/C(=N\OC(=O)Cc1ccccc1)c1cccc(Br)c1	-3	0	-14	-24	i	-3	x	8
O=C(Cc1ccccc1)Nc1ccccc1C(=O)Nc1ccc(C(=O)O)cc1	1	3	5	4	x	-7	-10	-4
CCOC(=O)Cn1c(=O)oc2cc(S(=O)(=O)Nc3c(C)cc(C)cc3C)ccc21	-4	3	14	2	x	2	-14	-14
NNc1nc(-c2ccccc2)cs1	1	6	-17	-17	i	-8	-17	7
Cc1ccc(C(=O)N2CCN(c3ncccn3)CC2)cc1S(=O)(=O)N1CCCCC1	9	5	12	-16	i	11	13	3
O=C(Nc1ccc(S(=O)(=O)Nc2nccs2)cc1)c1cc(=O)[nH]c2ccccc12	-3	3	12	12	i	4	1	-9
O=C1CSCC(=O)N1c1ncc(C(F)(F)F)cc1Cl	-8	1	-2	3	i	-2	x	-10
Cc1ccc(N2CCN(C(=O)c3cc(-c4ccc(F)cc4)[nH]c3C)CC2C)cc1 (stereo not drawn)	-1	-14	25*	4	i	u	-14	25	PABP FP inh retest=89*
COC(=O)N1CCC2CC1c1c(Cl)cccc12 (stereo not drawn)	6	1	x	-9	x	x	-16	x
CCCCCCC(=O)Nc1nc(C)c(-c2csc(Nc3ccc(Cl)cc3)n2)s1	4	1	1	x	i	-8	-19	52
O=C(CCC(=O)c1ccc(-c2ccccc2)cc1)Nc1cccnc1	-1	-1	4	4	i	-8	x	-4
CCCCNC(=O)c1onc(CSc2ccc(F)cc2)c1C(=O)O	-1	-1	-4	-11	i	6	-10	-10
Cc1cc(-c2ccc(C)c(S(=O)(=O)NCC3CCN(Cc4ccccc4F)CC3)c2)on1	2	-1	-3	-2	i	-6	2	x
CCN(CC)c1nc2c3c(nc4c(c3c1C#N)CC(=O)N4c1ccc(Cl)cc1)NC(C)=N2	-9	0	65	-19	i	2	-11	-5	eIF4H inh retest=-6;PABP FP inh retest=-1
COc1cc2c(cc1OC)C(O)C(O)(CO)C(C(=O)O)C2c1cc(OC)c(OC)c(OC)c1 (stereo not drawn)	-3	3	x	8	x	x	4	x
O=C(O)/C(=C\c1ccc(Br)cc1)NC(=O)c1cccs1	2	5	-9	-3	i	-4	-21	1
CC1CCc2ccccc2N1C(=N)N(C)C (stereo not drawn)	2	-3	-5	-42	i	-11	x	-11
